D2 PAM: positive allosteric modulators of human D2 dopamine receptor; potentiation, % (no concentration beside the values); 0.23% of 360,000 active; DiscoveRx D2 beta-arrestin cells, luminescence, 90 min; 100% = 57 uM dopamine signal; AID 624464; P14416; active = potentiation of 50% or more; inconclusive = 30% to 50%; inactive = 30% or less;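 note: compound concentration not given in the record; tested on top of an EC20 dose of dopamine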
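PathHunter D2 cells, attached overnight at 37 deg C, received compound in DMSO plus dopamine at EC20 (50 nM final) for 90 min at 37 deg C. Beta-arrestin recruitment was read as luminescence after 1 h with detection reagent at ambient temperature.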
TRPML1 blocker: human mucolipin-1 channel inhibition; activity change, negative = inhibition, % (no concentration beside the values); 0.02% of 390,000 active; TRPML1-inducible cells, Ca2+ dye fluorescence, FDSS; active compounds read low; inhibition of EC80 agonist-evoked calcium signal; AID 624415; Q9GZU1; in the data active means activity change below about -50%; inconclusive means about -30% to -50%; inactive means above about -30%;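 note: stimulus is agonist 54-4 at its EC80 concentration; % is set by controls: 0 for no effect and ±100 for the full control effect; compound concentration not given in the record; the text of the record puts the active cut at -80%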
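TRPML1-DL cells, Tet-induced overnight (~16 h, 37 °C) at 1,500 cells/well, were loaded with Ca8 no-wash dye plus quencher for 45-90 min at room temperature. Compounds were pinned during FDSS kinetic reading; agonist 54-4 at EC80 (4 uM final) then added.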
CtBP-E1A blk: CtBP/E1A binding inhibition | AlphaScreen GST-E1A/His-CtBP binding, 1536-well; active compounds read low; control for the full effect not named in the record | activity change, % (test concentration not listed) | 0.49% of 340,000 active; in the data active means activity change below about -65%; inconclusive means about -30% to -65%; inactive means above about -30%; note: % is set by controls: 0 for no effect and ±100 for the full control effect
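In 5 uL wells, 23 nL compound meets equimolar GST-E1A and His-CtBP (5X stock 125 nM each) for 2 h, 37 °C. Beads (5X, 50 ug/mL) then 1 h, 37 °C, dark.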
Six1-Eya2 inh: Six1/Eya2 interaction inhibition; activity change, % (concentration not given with the values); 0.56% of 360,000 active; AlphaScreen GST-Six1/His-Eya2 binding, biochemical; active compounds read low; control for the full effect not named in the record; in the data active = activity change below about -65%; inconclusive = about -30% to -65%; inactive = above about -30%; note: % is set by controls: 0 for no effect and ±100 for the full control effect
Target sequence (O00167 whole entry, looked up): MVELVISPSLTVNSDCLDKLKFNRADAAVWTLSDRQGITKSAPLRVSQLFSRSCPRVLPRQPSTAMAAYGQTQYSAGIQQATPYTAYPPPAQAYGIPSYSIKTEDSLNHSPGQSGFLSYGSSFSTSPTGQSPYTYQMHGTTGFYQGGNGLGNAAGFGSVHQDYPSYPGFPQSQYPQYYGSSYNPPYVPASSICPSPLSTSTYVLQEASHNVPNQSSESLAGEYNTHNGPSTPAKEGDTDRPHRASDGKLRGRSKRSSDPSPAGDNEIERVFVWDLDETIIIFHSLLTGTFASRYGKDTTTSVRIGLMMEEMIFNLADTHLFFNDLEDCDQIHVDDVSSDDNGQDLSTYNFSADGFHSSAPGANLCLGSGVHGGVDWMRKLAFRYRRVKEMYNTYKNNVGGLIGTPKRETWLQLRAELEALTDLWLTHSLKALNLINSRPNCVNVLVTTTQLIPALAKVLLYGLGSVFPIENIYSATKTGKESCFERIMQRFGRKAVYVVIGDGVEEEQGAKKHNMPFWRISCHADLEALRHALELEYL
Target sequence (Q15475 whole entry, looked up): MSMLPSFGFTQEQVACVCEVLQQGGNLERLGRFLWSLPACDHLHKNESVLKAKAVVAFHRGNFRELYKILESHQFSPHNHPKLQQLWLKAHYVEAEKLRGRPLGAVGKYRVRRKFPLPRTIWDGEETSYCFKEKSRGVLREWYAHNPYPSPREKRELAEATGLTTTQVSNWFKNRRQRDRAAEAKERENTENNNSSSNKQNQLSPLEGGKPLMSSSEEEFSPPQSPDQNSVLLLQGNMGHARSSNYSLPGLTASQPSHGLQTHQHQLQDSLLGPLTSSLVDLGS
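AlphaScreen luminescence read after one hour at 37 °C in darkness. Pin-transferred compounds met GST-Six1 and His-Eya2 protein (5X stock 250 nM/500 nM) plus glutathione donor and Ni-chelate acceptor beads (5X, 50 ug/mL).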
TRPML1 ag: human mucolipin-1 channel agonism; AID 624414; 0.12% of 410,000 active; TRPML1-expressing cells, Ca2+ dye fluorescence, FDSS; host cell line not named in the record; reference of the full effect not given here; Q9GZU1; activation, % (test concentration not listed); in the data active = activation above about 50%; inconclusive = about 30% to 50%; inactive = below about 30%; note: 0% is about no effect; the text of the record puts the active cut at 80%
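Tet-induced TRPML1-DL cells, 1,500 per well, cultured overnight, were loaded with a no-wash Ca2+ dye for 45–90 min. Calcium fluorescence was recorded on the FDSS for 110 s after compound addition, before the EC80 agonist (4 uM 54-4) was added.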
TRPV1 potentiator: enhances activation of the human vanilloid receptor TRPV1; TRPV1-expressing cells, Fluo-8 calcium influx, capsaicin EC20 potentiation; host cell line not named in the record; control for the full effect not named in the record; potentiation, % at 8.33 µM; 0.02% of 320,000 active; AID 540277; active means potentiation above 80%; inconclusive means 30% to 80%; inactive means below 30%; note: 0% is about no effect
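Fluo-8 calcium influx in TRPV1-expressing cells, kinetic read (ex 480/em 520 nm). Compound added and read 3 min for agonist activity, followed by capsaicin at EC20 final and 2 min further read for enhancement.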
Active calls of the source: *; ? = inconclusive; nt = not tested or not shown; & = joins results of further samples. Outcome played no part in choosing rows; 0.95% or so of the library scored in one or more.

smiles,CtBP-E1A blk,Six1-Eya2 inh,TRPML1 blocker,TRPML1 ag,TRPV1 potentiator,D2 PAM
C[C@H](CO)N1C[C@H](C)[C@@H](CN(C)C(=O)Oc2ccccc2)OCc2cn(nn2)CCCC1=O,-23,2,-1,0.0,nt,-2
Cc1cc(C(=O)Nc2c(C)nn(Cc3c(Cl)cccc3Cl)c2C)no1,6,6,-13,0.8,5,4
O=C(NCc1ccccc1)C1c2ccccc2OCC(=O)N1C1CC1 (stereo not given),8,2,nt,-0.6,nt,nt
O=C(Nc1c(C(=O)Nc2ccccc2)cnn1-c1ccccc1)c1ccco1,6,1,-8,0.0,-25,5
CC(=O)Nc1ccc(S(=O)(=O)N2C3CCCC2CC(NC(=O)C2CCCCC2)C3)cc1 (stereo not given),-3,-67*,-4,0.3,0,0
Nc1ccc(S(=O)(=O)Nc2nccc(/C=C/c3ccc([N+](=O)[O-])cc3)n2)cc1,-29,-16,1,-0.4,-1,3
CN1CCN(C(c2ccccc2)c2ccc(Cl)cc2)CC1 (stereo not given),-29,-10,23,5.6,-12,-28
O=C(CN1C(=O)S/C(=C/c2cccnc2)C1=O)N1CCOCC1,2,-2,3,0.6,-3,0
C(/C=C/c1ccco1)=N/N1CCN(c2ccccc2)CC1,?,?,-7,0.5,24,-26
COc1ccc(C2N(C(=O)N3CCOCC3)CCN2S(=O)(=O)c2ccc(C)cc2)cc1 (stereo not given),10,8,-13,-0.6,-3,-21
Cc1nnc(NC(=O)CC(NC(=O)C(F)(F)F)c2ccccc2)s1 (stereo not given),-21,-17,14,0.7,3,-1
O=C(O)CCCCCn1c(SCc2cc(=O)n3cc(Cl)ccc3n2)nc2ccsc2c1=O,5,-8,-6,0.1,-8,-26
COC(=O)c1ccc2c(c1)N(C)CCS2,-1,3,15,1.2,2,-4
CSc1c(CC(=O)NCCCO)n(Cc2ccccc2)c2ccccc12,-22,0,?,-0.2,-1,-5
C[C@H](CO)N1C[C@H](C)[C@@H](CN(C)S(=O)(=O)c2ccccc2)Oc2ccc(NC(=O)CCC(F)(F)F)cc2C1=O,3,-3,15,-0.6,nt,-2
CC1CCN(S(=O)(=O)c2ccc3c(c2)N(CC(=O)NCCCN2CCCCC2)C(=O)CS3)CC1,-4,2,-11&-5,-0.5&-0.5,27,-27
O=S1(=O)CCC(NC(=S)Nc2ccccc2)C1 (stereo not given),0,7,-7,0.4,12,-6
CCn1ncc(C2=NOC(C(=O)NCc3ccc(Cl)cc3)C2)c1C (stereo not given),3,2,4,1.2,14,-7
COc1ccc(OC)c(S(=O)(=O)Nc2cc3c4c(c2)CC(=O)N4CCC3)c1,2,-6,-1,0.0,25,0
CN(C)C(CNC(=O)CCC(=O)c1ccc(Br)cc1)c1ccccc1 (stereo not given),-5,-3,1,0.3,11,-7
O=C(CCC(=O)N1CCN(Cc2ccc(F)cc2)CC1)Nc1nnc(C(F)(F)F)s1,-1,11,-2,1.0,0,-14
COc1ccc(C(C)C)cc1S(=O)(=O)n1ccnc1C,8,1,27,1.8,-12,-5
CCOc1cc(/C=N/n2cnnc2)c(Br)cc1O,-7,-11,5,-0.8,nt,8
CN1C(=O)/C(=C/c2ccco2)SC1=Nc1ccc(N2CCOCC2)cc1,0,2,-12,-0.6,2,5
CSCCC(NC(N)=O)C(=O)NCc1cccc(Cl)c1 (stereo not given),5,4,10,0.6,4,-7
COc1ccc(NC(=O)c2cccc3c2C(=O)c2ccc(-c4cnc(OC)nc4)cc2S3(=O)=O)cc1,nt,9,-8,0.5,?,-3
C[C@@H]1CN([C@@H](C)CO)C(=O)c2cc(N(C)C)ccc2O[C@@H](C)CCCCO[C@@H]1CN(C)S(=O)(=O)c1cccs1,-6,-15,56,0.4,nt,-5
COc1ccc(/C=N/N(C)C2=NCCN2)c(OC)c1OC,nt,8,26,1.3,-7,-5
CCCCn1c(O)c(/C=C2\C=Nc3ccccc32)c(=O)[nH]c1=O,-12,-5,-2,1.2,3,-4
Cc1cc(C)c(S(=O)(=O)c2ccccc2)c(OC(=O)c2c(Cl)cc(Cl)cc2Cl)n1,0,3,20,0.6,12,-12

(listing goes on)
smiles,CtBP-E1A blk,Six1-Eya2 inh,TRPML1 blocker,TRPML1 ag,TRPV1 potentiator,D2 PAM
O=C1CCCC2=C1C(c1cccs1)n1nc(SCc3ccccc3)nc1N2 (stereo not given),-6,-4,22,1.0,-3,0
CS(=O)(=O)C1=NSC2=NC(=O)/C(=C\c3cccn3-c3ccccc3Cl)C(=N)N21,nt,-6,-1,0.1,4,1
COc1ccccc1CC(=O)NC12CC3CC(CC(C3)C1)C2,4,0,18,1.6,3,-7
Cc1ccc(C(CC(=O)NCc2ccco2)c2ccccc2)c(O)c1 (stereo not given),27,9,-5,0.8,-7,-11
O=C(COc1ccc(Cl)cc1)Nc1ccc(CN2CCOCC2)cc1,nt,0,-4,0.1,-29,-6
COc1ccc(OCCOCCN2CCN(C)CC2)cc1,nt,0,15,-0.4,-9,-2
CCSc1ncc(Cl)c(C(=O)Nc2ccccc2Cl)n1,nt,11,17,1.7,-4,-11
Cn1c(SCC(=O)NCc2ccco2)nnc1-c1ccccc1,5,7,29,-0.4&-0.7,-5,-4
CC(OC(=O)c1ccccc1N1C(=O)C2C3CCC(C3)C2C1=O)C(=O)c1ccccc1 (stereo not given),4,11,51,-0.3,-21,-21
O=C(C1CCC(CNc2nc(=S)[nH]c3ccccc23)CC1)N1CCN(c2ccc(F)cc2)CC1 (stereo not given),-13,-10,22,2.7,-1,-5
CC1CCCCN1Cc1nc2ccccc2c(=O)[nH]1 (stereo not given),-2,8,3,0.0,-2,4
Cc1cc(=O)[nH]c(SCc2ccc(Cl)cc2Cl)n1,nt,0,2,1.8,14,-8
O=C(Cn1ccc([N+](=O)[O-])n1)N1CCCCC1,nt,2,4,0.5,-11,-4
O=C(COC(=O)c1cncc(Br)c1)NCC1CCCO1 (stereo not given),3,5,3,-0.7,-1,-3
CSc1ncccc1C(=O)N1CCCC(CCC(=O)NCc2ccccc2F)C1 (stereo not given),2,1,8,0.4,-8,2
CCCCCn1c(NCc2ccco2)nc2ccccc21,-1,0,-16,0.3,26,-4
C[C@H](CO)N1C[C@H](C)[C@@H](CN(C)Cc2ccncc2)Oc2ccc(NC(=O)Cn3cnnn3)cc2C1=O,-25,11,-20,-0.4,nt,-11
CCOc1ccc(NC(=O)COc2ccc(C(=O)NC3CCCc4ccccc43)cc2OC)cc1 (stereo not given),-10,6,2,0.9,20,-4
O=C(CC(CC(=O)c1ccccc1)c1ccccn1)c1ccccc1,-5,-6,11,4.4,nt,-11
COc1ccc(CNC(=O)CCS(=O)(=O)c2ccc(Br)cc2)cc1,8,-16,-1,-1.1,-16,-8
Cc1ccc(SCC(=O)Nc2nncs2)cc1,nt,0,10,2.7,nt,4
CCOc1ccc(CN2CCN(Cc3c(C)nn(CC)c3C)CC2CCO)cc1 (stereo not given),-1,1,-22,0.9,-1,-6
CC/C(C)=N/Oc1nc(C)cc(C)n1,-4,-4,4,0.5,0,-6
O=C1C(c2ccc(F)cc2)N(CC2COc3ccccc3O2)C(=O)CN1C1CCCCC1 (stereo not given),4,3,1,1.4,-4,-4
Cc1ccc2c(Cl)c(C(=O)N/N=C/c3cccn3C)sc2c1,3,1,-1,-0.3,-14,12
O=C(CCNS(=O)(=O)c1cccc2nsnc12)NCc1cccs1,-2,4,-5,2.4,-5,-2
COc1cc(C(F)(F)F)c(C(=O)NCc2cccc(Cl)c2)cn1,12,7,1,-0.5,5,-2
CC(C)(C)c1ccc(C(=O)N2CCC2(C)C(=O)NS(=O)(=O)c2ccccc2Cl)cc1 (stereo not given),6,13,nt,-0.5,nt,1
CCOc1ccc(NC(=O)Nc2cccnc2)cc1,4,-6,6,-0.4,-4,0
COc1ccc(CCNC(=O)Cn2c([N+](=O)[O-])cnc2C)cc1OC,-1,1,-9,-0.3,-10,-4

(further entries)
smiles,CtBP-E1A blk,Six1-Eya2 inh,TRPML1 blocker,TRPML1 ag,TRPV1 potentiator,D2 PAM
CCOCCCNC(=O)C(NC(=O)c1ccc(NC(C)=O)cc1)c1ccc(C)cc1 (stereo not given),0,8,19,0.0,-7,-13
COc1ccc(CNC(=O)N2[C@H]3CC[C@@H]2C=C(c2ccc(F)cc2OCc2ccccc2)C3)cc1OC,-2,-4,5,1.4,nt,-1
Cc1cc(C)n2nc(Sc3ncccc3[N+](=O)[O-])nc2n1,nt,5,16,1.1,20,3
Cc1onc(-c2c(Cl)cccc2Cl)c1C(=O)N1CCSCC1,2,7,-24,1.6,-5,-1
CC1CCN(c2nc(CN3CCCCC3)nc3scc(-c4ccccc4)c23)CC1,-2,-2,48,0.3,-8,-38
Cc1ccc2c([N+](=O)[O-])cccc2n1,1,3,21,1.8,-3,1
CCn1cc([N+](=O)[O-])c(C(=O)Nc2cc(C)on2)n1,0,1,41,1.0,-8,-3
CC(C)N1CCC1(C)C(=O)Nc1nc2ccccc2[nH]1 (stereo not given),-1,-1,nt,-0.1,nt,-9

Part of the list above in a different format:
CCOCCCNC(=O)C(NC(=O)c1ccc(NC(C)=O)cc1)c1ccc(C)cc1 (stereo not given)
  CtBP-E1A blk: 0; Six1-Eya2 inh: 8; TRPML1 blocker: 19; TRPML1 ag: 0.0; TRPV1 potentiator: -7; D2 PAM: -13
Cc1onc(-c2c(Cl)cccc2Cl)c1C(=O)N1CCSCC1
  CtBP-E1A blk: 2; Six1-Eya2 inh: 7; TRPML1 blocker: -24; TRPML1 ag: 1.6; TRPV1 potentiator: -5; D2 PAM: -1
COc1ccc(CNC(=O)N2[C@H]3CC[C@@H]2C=C(c2ccc(F)cc2OCc2ccccc2)C3)cc1OC
  CtBP-E1A blk: -2; Six1-Eya2 inh: -4; TRPML1 blocker: 5; TRPML1 ag: 1.4; TRPV1 potentiator: nt; D2 PAM: -1
CCn1cc([N+](=O)[O-])c(C(=O)Nc2cc(C)on2)n1
  CtBP-E1A blk: 0; Six1-Eya2 inh: 1; TRPML1 blocker: 41; TRPML1 ag: 1.0; TRPV1 potentiator: -8; D2 PAM: -3
